Screening results (PubChem BioAssay)
TRPV1 PAM: enhances activation of the human vanilloid receptor TRPV1 | 0.02% of 320,000 active | potentiation, % at 8.33 µM | AID 540277 | TRPV1-expressing cells, Fluo-8 calcium influx, capsaicin EC20 potentiation; host cell line not named in the record; control for the full effect not named in the record; active means potentiation above 80%; inconclusive means 30% to 80%; inactive means below 30%; also: 0% is about no effect
Target sequence (Q8NER1 whole entry, looked up): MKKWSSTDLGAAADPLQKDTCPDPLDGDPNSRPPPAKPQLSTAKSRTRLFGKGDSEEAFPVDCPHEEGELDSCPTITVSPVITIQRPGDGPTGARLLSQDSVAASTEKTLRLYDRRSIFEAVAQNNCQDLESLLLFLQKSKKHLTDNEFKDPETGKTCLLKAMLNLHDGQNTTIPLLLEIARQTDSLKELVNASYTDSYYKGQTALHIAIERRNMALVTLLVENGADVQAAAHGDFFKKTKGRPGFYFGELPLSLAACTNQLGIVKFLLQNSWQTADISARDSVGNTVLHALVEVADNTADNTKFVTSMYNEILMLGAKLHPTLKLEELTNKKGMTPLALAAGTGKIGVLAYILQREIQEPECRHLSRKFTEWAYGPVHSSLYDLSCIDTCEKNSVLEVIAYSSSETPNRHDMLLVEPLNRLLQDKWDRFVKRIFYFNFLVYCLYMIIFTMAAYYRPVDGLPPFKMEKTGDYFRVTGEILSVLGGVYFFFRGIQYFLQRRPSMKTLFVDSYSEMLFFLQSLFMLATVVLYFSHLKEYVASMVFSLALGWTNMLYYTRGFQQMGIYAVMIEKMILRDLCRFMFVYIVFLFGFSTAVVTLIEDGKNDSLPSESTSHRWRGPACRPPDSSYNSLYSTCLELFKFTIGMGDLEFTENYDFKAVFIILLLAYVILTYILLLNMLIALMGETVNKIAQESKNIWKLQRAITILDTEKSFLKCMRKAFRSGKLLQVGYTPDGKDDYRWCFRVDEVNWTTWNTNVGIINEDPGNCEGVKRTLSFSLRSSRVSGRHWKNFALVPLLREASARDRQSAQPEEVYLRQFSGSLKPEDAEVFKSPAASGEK
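TRPV1-expressing cells were cultured overnight at 35.5C and loaded with Fluo-8 calcium dye for 40 to 90 min at room temperature. After a 10 s baseline, compound was added and calcium influx was read kinetically for 3 min (ex 480/em 520 nm).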
ClpP mod: qHTS Assay for Activators of ClpP; purified B. subtilis ClpP, FRET peptide cleavage, 20 min; Potency, µM (doses to about 57.5 µM), without a hit: at the top dose activity change, negative = active; 1.9% of 340,000 active; AID 651965, 2013; active = well fitted falling curve with a large enough effect; inconclusive = small, poorly fitted or top-dose-only effect; inactive = no such curve, though single readings can be large or run the other way; also: potency is read from the fitted curve at half-maximal effect; the source files actives as falling curves though it sought activators and does not explain the sign; nearly all actives have a fitted effect of over 65% in size; many hits overshoot -100%
Target sequence (P80244 whole entry, looked up): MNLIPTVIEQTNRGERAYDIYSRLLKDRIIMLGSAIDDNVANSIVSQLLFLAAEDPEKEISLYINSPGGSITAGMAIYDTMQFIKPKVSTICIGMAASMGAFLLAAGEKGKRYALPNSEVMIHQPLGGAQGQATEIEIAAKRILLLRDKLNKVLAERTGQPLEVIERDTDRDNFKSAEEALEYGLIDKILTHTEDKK
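Purified B. subtilis ClpP, 10 microg/mL final in Tris/HCl pH8 with KCl, BSA, glycerol and Tween-20, cleaved an Abz/nitrotyrosine-quenched decapeptide. Fluorescence (ex 320, em 430) was read at 0 and 20 min at room temperature. Delta was normalized to 5.8 microM ADEP and DMSO/no-enzyme controls.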
Sfp PPTase inh: blocks B. subtilis Sfp PPTase activity | Q9F4F7 | Biochemical Sfp PPTase activity, qHTS | Potency, µM, without a hit: max response, negative = inhibition, hits mostly inhibitors | 3.5% of 310,000 active | AID 1490; active = well fitted inhibition curve with a large enough effect; inconclusive = small, poorly fitted or top-dose-only effect, or another doubt; inactive = no such curve, though single readings can be large or run the other way;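 also: the enzyme is Sfp with the accession as filed and its product quenches rhodamine fluorescence; potency is read from the fitted curve at half-maximal effect; 0% = enzyme reaction without inhibitor and -100% = no enzyme wells; top concentration of the series not given in the record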
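Sfp 15 nM + cpd, 15 min RT; start w/ rhodamine-CoA 5 uM, BHQ-2-YbbR 12.5 uM (final); 50 mM Hepes pH 7.6, 10 mM MgCl2, 0.01% NP-40, 0.01% BSA; read 525/598 nm at 0 and 30 min.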
Menin MLL FP FL: menin-MLL binding inhibition, fluorescein peptide; Fluorescence polarization, fluorescein-MLL peptide displacement from menin; FP activity change, % at 61.4 µM; 290,000 tested, under 10 active; AID 1766; inconclusive = falling polarisation curve, or a change in total fluorescence; inactive = total fluorescence flat and polarisation flat or rising; no compound was filed as active; the % refers to the polarisation; negative = inhibition;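 also: % of control where 0% means no effect; inhibitors lower the polarisation; unlabelled MLL peptide was the positive control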
CtBP-E1A inh: blocks the CtBP interaction with E1A | AlphaScreen GST-E1A/His-CtBP binding, 1536-well; stronger effect = lower value; control for the full effect not named in the record | activity change, % (test concentration not listed) | 0.49% of 340,000 active | AID 651724; in the data active means activity change below about -65%; inconclusive means about -30% to -65%; inactive means above about -30%; also: % is scaled to controls: 0 for no effect and ±100 for the full control effect; compound concentration not given in the record
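Protein mix (5X: 125 nM each GST-E1A, His-CtBP) was incubated with pinned compound 2 h at 37 deg C in dark, in 50 mM Tris pH 8.0 buffer with 300 mM NaCl. Glutathione donor and nickel acceptor beads followed; AlphaScreen signal read after 1 h.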
gsp agonist: agonists of gsp mutant (McCune-Albright syndrome); 0.13% of 340,000 active; AID 624287; gsp mutant cells, cAMP HTRF, 30 min; control for the full effect not named in the record; Potency, µM (doses to about 76.9 µM), for inactives: at the highest dose activation (cAMP increase), most hits filed as activators; active = well fitted activation curve with a large enough effect; inconclusive = small, poorly fitted or top-dose-only effect, or another doubt; inactive = no such curve, though single readings can be large or run the other way; cell line not stated here;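 also: phosphodiesterase inhibitor Ro 20-1724 added with compounds to block cAMP breakdown; potency is read from the fitted curve at half-maximal effect; nearly all actives have a fitted effect of over 60% in size; about a fifth of the inactives were tested at one dose only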
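Cells in DMEM/10% FBS with G418 were pretreated with compounds in DMSO plus […] (300 uM stock) for 30 min at 37C. cAMP was measured by HTRF (cAMP-d2 plus anti-cAMP antibody-K) after 30 min at room temperature.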
gsp antagonist: antagonizes gsp, the McCune-Albright syndrome mutation. gsp-mutant cells, cAMP HTRF, 30 min; control for the full effect not named in the record. Potency, µM (series often up to 76.9 µM), inactives show top-dose activity change, negative = inhibition, usual class: inhibitors. 0.4% of 340,000 active. AID 624288; active = falling curve of any shape with a large fitted effect; inconclusive = falling curve, mostly with a smaller effect; inactive = flat or rising curve; cell line not stated here;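 also: intracellular cAMP measured with PDE inhibitor Ro 20-1724 present during compound exposure; potency is read from the fitted curve at half-maximal effect; % is scaled to controls: 0 for no effect and ±100 for the full control effect; nearly all actives have a fitted effect of over 65% in size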
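HTRF cAMP read-out (cAMP-d2 plus anti-cAMP antibody-K in lysis buffer, 30 min RT). Before lysis, cells are exposed to compounds with […] for 30 min at 37C in DPBS containing Ca/Mg, BSA and Tween 20.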
An asterisk follows results filed as active; ? = inconclusive; . = no result given; & = joins results of further samples; [ ] = remark or other dose.

compound | TRPV1 PAM | ClpP mod | Sfp PPTase inh | Menin MLL FP FL | CtBP-E1A inh | gsp agonist | gsp antagonist
COC(=O)c1ccc(CNC(=O)C2CCC(=O)N(CCN3CCOCC3)C2)cc1 (stereo not drawn) | 10 | -0.9% | 14% | . | 12 | 24% | 17%
Cc1cccc(NC(=O)CSc2nnc(CNC(=O)c3ccco3)o2)c1 | 9 | -0.8% | 3% | . | 4 | ? | 3%
CCn1c(C)c2c(C)nnc(C)c2c1C | 19 | -21% | -15% | -4.0 | -2 | ? | 9%
O=C1CN(C(=S)NC(=O)c2ccc(-c3ccccc3)cc2)CCN1 | 5 | 3.6% | -3% | -2.8 | 1 | -39%[inhibitor] | 1%
Cc1ccc(NC(=O)c2ccccc2OCC(=O)Nc2cccc(Cl)c2C)nc1 | -5 | . | 20% | -1.6 | . | . | .
O=C(NCCc1ccc(F)cc1)c1cc(-c2ccncc2)nc2ccccc12 | 4 | . | 25% | 4.4 | . | . | .
CC(=O)c1c(C)[nH]c(C(=O)OC2CCOC2=O)c1C (stereo not drawn) | 1 | 1.3% | 20% | 2.7 | 4 | 19% | 6%
CCOC(=O)c1cccc(NC(=O)CSc2nnc(-c3ccncc3)n2CCCOC)c1 | 18 | -3.4% | 12% | 2.5 | -2 | ? | -11%
COc1ccc(CC(NC(C)=O)C(=O)NC2CCN(C(=O)c3ccccc3F)CC2)cc1 (stereo not drawn) | 17 | -1.1% | 16% | -3.5 | 24 | 26%[15.4 µM] | -14%
S=c1[nH]nc(CCCc2n[nH]c(=S)o2)o1 | 13 | . | ? | 3.3 | 1 | 0%[15.4 µM] | 5%
CCOc1ccccc1N1C(=O)c2ccc(C(=O)Nc3cccnc3)cc2C1=O | 20 | -1.7% | -24% | -1.5 | 1 | 25% | -26%
N#Cc1cccc(C(=O)Nc2ccc(S(=O)(=O)Nc3nccs3)cc2)c1 | . | -2.0% | . | . | -24 | 3% | 10%
COc1ccc(N(C)C(=O)CCC(=O)Nc2ccc3nc(N4CCOCC4)cc(C)c3c2)c(OC)c1 | 6 | 28µM* | -7% | 1.1 | -6 | -8% | 6%
CCc1cc(-c2nnn(CCC3COCCO3)c2CC)cc(CC)c1-c1cn(CCc2c[nH]c3ccccc23)nn1 (stereo not drawn) | . | 1.2% | . | . | 0 | -21% | .
O=C(Nc1ccnn1C1CCN(C/C=C/c2ccccc2)CC1)c1cccc(F)c1 | 3 | -1.0% | 1% | . | 0 | -4% | 4%
CCc1nc2ccccc2c(C(=O)NCc2ccccc2)c1C | -17 | 0.0% | 9% | 5.3 | 5 | -8%[15.4 µM] | 10%
O=C(/C=C/c1ccc(Cl)cc1)NC(=S)Nc1ccc(CN2CCOCC2)cc1 | -4 | . | -1% | -2.6 | -5 | 1%[15.4 µM] | -2%
C#CCOCCOCCOCCNc1nc(N2CCN(C(=O)[C@H](Cc3cc4ccccc4[nH]3)n3cc(C(N)CC(C)C)nn3)CC2)nc(N2CCN(C(=O)[C@H](CCC(=O)O)n3cc(C(N)[C@H](C)CC)nn3)CC2)n1 (stereo partly drawn) | -8 | -7.2% | -2% | -3.0 | -27 | . | 7%
CCCN(CCC)C(=O)c1ccc2c(c1)N(Cc1ccccc1)C(=O)CS2=O (stereo not drawn) | -4 | -1.4% | -20% | 1.6 | 1 | 5% | -5%
O=C(Nc1ccc(Cl)cn1)C1CCCN1S(=O)(=O)c1cccc2ccccc12 (stereo not drawn) | 0 | -5.3% | 16% | 2.9 | -2 | -32%[inhibitor] | ?
CCOC(=O)c1c(S(=O)(=O)N2CCCCCC2)c(C)n(C)c1C | 21 | 1.6% | 7% | 2.8 | -15 | 8% | 5%
Cc1ccc(C(=O)NCC(=O)OCC(=O)N(CC(C)C)c2c(N)n(Cc3ccccc3)c(=O)[nH]c2=O)s1 | . | 0.1% | . | . | 1 | ? | .
COc1ccc(C(N)CCc2ccc(C)o2)cc1 (stereo not drawn) | -1 | ? | -12% | 6.1 | 2 | ? | -2%
COc1cc(OC)cc(C(=O)NC(=S)Nc2ccc(N3CCCC3)cc2)c1 | 4 | 2.2% | ? | -2.1 | -7 | 2% | -18%
C=C[C@@H]1c2cc(C)ccc2N(S(=O)(=O)c2ccc(C)cc2)[C@H](c2ccc(OC(C)=O)cc2)C1(C#N)C#N | 5 | -2.6%&-1.1% | . | . | . | -4% | 2%
COc1cc(NC(=S)Nc2cccc(Cl)c2Cl)c(OC)cc1Cl | 14 | -1.9% | 50µM* | -0.3 | -1 | -38% | -2%
O=C(NNC(=O)C12CC3CC(CC(O)(C3)C1)C2)c1csc(N2CCOCC2)n1 | -6 | -16% | 1% | . | 13 | -21% | -1%
O=C(NCCC(=O)N1CCN(c2ccccc2O)CC1)c1ccc(Cl)cc1 | -11 | -3.1% | . | . | 0 | 3% | 2%
Cc1ccc2c(c1)-c1c(cnn1CC(=O)N(CCC#N)c1ccccc1)CO2 | -2 | -4.1% | 11% | 3.5 | 4 | -8% | -5%
Cc1nn(Cc2ccccc2Cl)c(C)c1NC(=O)c1noc(C(C)C)c1[N+](=O)[O-] | -13 | -5.3% | 4% | . | -12 | 30% | -12%
CC(C)=CCN1CCN(Cc2cc(CC(C)C)n[nH]2)CC1CCO (stereo not drawn) | 5 | . | -3% | -0.5 | -5 | -11%[15.4 µM] | 8%
CCN(CC)/C(=N/S(=O)(=O)c1ccc(C)cc1)c1ccccc1 | 7 | -2.9% | 9% | -5.1 | -8 | 29% | -5%
CCn1cc(C2=NC(CC(C)C)CO2)c2ccccc21 (stereo not drawn) | 2 | . | -2% | -0.5 | 2 | -31%[15.4 µM] | -14%
CCOC(=O)c1cc(C#N)c(N2CCN(c3ccc(OC)cc3)CC2)[nH]c1=O | 4 | -4.4% | 5% | -0.3 | . | 0% | -6%
O=C(CCCOc1ccc(Cl)cc1Cl)NCCc1nnc2ccccn12 | 20 | . | 1% | -3.4 | 0 | ? | -9%
CCCCN(C(=O)c1ccco1)C1CCS(=O)(=O)C1 (stereo not drawn) | 6 | 0.1% | . | . | 1 | -2%[15.4 µM] | 2%
O=C(c1ccccc1Cl)N1CCCC(c2nc3c(nnn3Cc3ccccc3)c(=O)[nH]2)C1 (stereo not drawn) | -27 | -1.8% | -3% | -0.4 | -17 | 5% | 3%
CC1CN(S(=O)(=O)c2cn(C)c(=O)n(C)c2=O)CC(C)O1 (stereo not drawn) | -21 | -0.8% | 14% | -0.7 | -16 | -65%[inhibitor] | -4%
CCCCOC(=O)Cn1c2ccc(OC)cc2c2nc3ccccc3nc21 | -7 | 2.2% | -15% | ? | 32 | ? | 5%
O=C(N/C(=C\c1ccccc1)C(=O)N1CCCCC1)c1ccco1 | 29 | . | 22% | -8.9 | 5 | ? | 11%
O=C1c2[nH]nc(-c3ccccc3O)c2C(c2cccc(Cl)c2)N1Cc1ccco1 (stereo not drawn) | -2 | -2.6% | -11% | 2.6 | -26 | 2% | ?
Cc1ccc2nc3n(c(=O)c2c1)-c1cc2ccccc2cc1C(=O)NC3Cc1ccccc1 (stereo not drawn) | . | ? | . | . | -4 | 29% | .
COc1ccc2c(c1)c(C(=O)CN1CCN(c3ccccc3)CC1)c(C)n2C | 18 | -0.3% | 5% | 4.3 | -5 | 10%[15.4 µM] | -29%
Cc1c(C(=O)NCCCN2CCCCC2)oc2ccc3c(c12)C(O)CC1(CCCCC1)O3 (stereo not drawn) | 4 | ? | 3% | 2.4 | . | -32%[inhibitor] | -21%
COCCNC(=S)N1CCC2CC1c1c(Cl)cccc12 (stereo not drawn) | . | 0.8% | . | . | 0 | -76% | .
CC1CCC(NC(=O)CN2C(=O)C3CCCN3c3ncc(Cl)cc32)CC1 (stereo not drawn) | -3 | . | 10% | 2.1 | . | . | .
C(=N\Nc1nc2ccccc2[nH]1)/C1CCCCC1 | 8 | . | -13% | -0.1 | -1 | -3%[15.4 µM] | -8%
CCn1cc(C(=O)NCCCN(CC(C)C)CC(C)C)c(=O)c2cc(S(=O)(=O)N3CCOCC3)ccc21 | 4 | -1.8% | 1% | . | 4 | 2% | 2%
O=C(c1ccccc1)c1ccc(OCCO)cc1 | -2 | -0.9% | 16% | 0.2 | . | -16% | -3%
CCOC(=O)c1ccccc1NC(=O)COC(=O)CCNS(=O)(=O)c1ccc(C)c(C)c1 | 17 | -22% | . | . | 3 | 28% | -27%

Next section, overlapping the part above by two compounds.
compound | TRPV1 PAM | ClpP mod | Sfp PPTase inh | Menin MLL FP FL | CtBP-E1A inh | gsp agonist | gsp antagonist
O=C(c1ccccc1)c1ccc(OCCO)cc1 | -2 | -0.9% | 16% | 0.2 | . | -16% | -3%
CCOC(=O)c1ccccc1NC(=O)COC(=O)CCNS(=O)(=O)c1ccc(C)c(C)c1 | 17 | -22% | . | . | 3 | 28% | -27%
Cc1c(C(=O)O)oc2c1C(O)CC(C)(C)C2 (stereo not drawn) | 1&5 | -2.2%&-7.1% | 10%&13% | -2.0&2.5 | -5&-1 | -2%&5% | 6%&7%
CCN(CC(=O)NCc1ccc(F)cc1)C(=O)c1oc2ccccc2c1C | -18 | . | 15% | -1.8 | 1 | 2% | -4%
CCCCS(=O)CC(CS(=O)CCCC)OC(=O)c1ccccc1 (stereo not drawn) | -8 | -1.9% | 1% | 2.7 | 6 | -4% | 10%
O=C(COC(=O)c1cc(Cl)ccc1O)Nc1ccccc1C(=O)NC1CC1 | . | ? | . | . | . | -12% | 6%
CCOc1cc(C2C3=C(CC(C)(C)CC3=O)N(CCOC)C3=C2C(=O)CC(C)(C)C3)ccc1O | -11 | -2.0% | 2% | -2.1 | . | -2% | -12%
